Assay outcomes: PubChem, several laboratories
eIF4H inh – inhibitors of RNA binding by human eIF4H; 290,000 compounds, 0.94% hits; inhibition, % at 35 µM; eIF4H fluorescence polarization binding assay;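 active means 50% or more with normal probe brightness, or confirmed in later tests; about a fifth of its hits are not listed in these tables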;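 further: calls also rest on retests at 20 µM and on dose response follow-up; 0% = protein and probe with vehicle and 100% = probe without protein; strong numbers were not always called active; many hits fall short of the cut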
HIV Env fusion – inhibitors of HIV Env-mediated cell fusion; inhibition, % at 12.3 µM; HeLa-JRFL Env/CEM21 cell fusion, luciferase; 360,000 compounds, 1.1% hits; AID 651610;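 active means mean replicate inhibition score of at least 50 and every replicate individually at or above 50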;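 further: 0% = plate neutral controls and 100% = maraviroc near 300 nM; one replicate is shown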
PABP polyA inh – blocks human PABP binding to poly(A) RNA; P11940; fluorescence polarization; inhibition, % at 35 µM; 290,000 compounds, 1% hits; AID 2014;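 active means 50% or more with normal probe brightness, or confirmed in later tests; about a fifth of its hits are not listed in these tables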;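 further: calls also rest on retests at 20 µM and on dose response follow-up; controls were probe without protein and protein plus probe with vehicle; some compounds called inactive have numbers as strong as hits; many hits fall short of the cut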
CSC inhib – cancer stem cell inhibition | inhibition, % at 7.5 µM | cancer stem cell-like cells viability, luminescence | 300,000 compounds, 1.1% hits;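 active means mean at 75% or more and at least half the replicates too; tested in HMLE shEcad cells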;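 further: 0% = median of negative and 100% = median of positive control wells; the first replicate is given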
Yeast UUG start – yeast start codon fidelity modulation; 350,000 compounds, 0.13% hits; activity score, % at 18.7 µM; S. cerevisiae UUG-firefly luciferase reporter, luminescence/redox ratio; AID 602363;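 active means replicate mean at a twofold rise or more, about +100% in these data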;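 further: firefly luciferase made from a UUG start codon reports start codon fidelity; reporter light over untreated wells divided by growth signal over untreated wells; some hits fall short of that in this replicate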
MT1-MMP act inh – inhibitors of human MT1-MMP activation; P50281; HT1080 RFP-PRO-GFP cells, GFP/RFP ratio fluorescence, overnight; percent of plate control window, DMSO zero; GFP/RFP ratio change, % at 20 µM; 360,000 compounds, 0.061% hits; AID 651647;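 active means GFP/RFP ratio change of at least 30% with cell ATP level not reduced by more than half and red fluorescence within 50% of control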; further: strong numbers were not always called active
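Assay system: RFP-PRO-GFP reporter HT1080 cells; read-out basis: GFP/RFP fluorescence ratio; benchmarks: DMSO wells and RFP-L50D-GFP cells; doses: 20 µM single dose, 1% DMSO; schedule: overnight cell settling, then overnight compound exposure, 37 °C, 5% CO2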
Rce1 inhib – blocks yeast Ras-converting enzyme. Q03530. yeast membranes, quenched prenylated peptide cleavage fluorescence. calls only. 290,000 compounds, 0.27% hits;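 active means fall in fluorescence gain of 50% or more versus controls, with final raw signal at or below 3038400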;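 further: plate controls were neutral control wells for no effect and wells lacking membranes for full effect; tested at 10 µM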
Target sequence (Q03530 whole entry, looked up): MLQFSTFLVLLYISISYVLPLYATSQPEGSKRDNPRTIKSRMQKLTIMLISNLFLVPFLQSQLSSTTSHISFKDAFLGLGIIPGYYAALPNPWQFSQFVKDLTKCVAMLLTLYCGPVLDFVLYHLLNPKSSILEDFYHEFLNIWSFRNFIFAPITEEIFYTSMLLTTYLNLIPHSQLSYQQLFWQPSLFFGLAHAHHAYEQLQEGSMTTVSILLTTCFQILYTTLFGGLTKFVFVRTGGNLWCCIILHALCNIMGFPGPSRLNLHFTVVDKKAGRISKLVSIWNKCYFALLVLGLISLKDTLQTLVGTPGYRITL
eIF4H inh retest – recorded beside eIF4H inh, whose call it bears; inhibition, %; compound at 20 µM; confirmation average;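 mean of two retest wells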
PABP polyA inh retest – second read-out of PABP polyA inh, no call of its own (marks repeat the call); inhibition, %; compound at 20 µM; confirmation repeats;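 mean of two retest wells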
MT1-MMP act inh RFP – further read-out of MT1-MMP act inh, marked with its call; RFP signal change, %; measured here: RFP expression control read;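 0 = vehicle wells; hits needed this value within 50% of zero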
Starred values were filed as active, the others as inactive; i = inactive; · = no result given.

SMILES	eIF4H inh	HIV Env fusion	PABP polyA inh	CSC inhib	Yeast UUG start	MT1-MMP act inh	MT1-MMP act inh RFP	Rce1 inhib	others
Cn1c(=O)c2c(nc(CN3CCOCC3)n2CCN2CCOCC2)n(C)c1=O	-2.8	·	-0.2	3.7	12.1	10.4	5.4	i
O=C(O)CCCNc1n[nH]c(=O)[nH]c1=O	-3.0	-5.7	6.1	·	·	-4.3	2.5	i
C=CCc1cc(Cl)ccc1OCCCNC(C)C	-0.4	·	-15.5	17.0	·	-0.4	-0.4	i
O=C1CSC(=S)N1c1cccc(F)c1	-5.5	19.0	3.6	-5.9	-9.7	13.1	13.6	i
CCCC(O)(c1ccc(OC)cc1)C(CN1CCOCC1)c1ccccc1 (stereo not drawn)	0.8	10.0	8.5	-13.8	1.2	-11.2	-8.3	i
O=C(NCc1ccccn1)c1ccccc1-c1ccccc1	17.8	1.6	6.8	3.5	·	0.0	6.6	i
NC(=O)c1ccc(NC(=O)COC(=O)c2ccccc2Nc2ccccc2)cc1	5.8	-3.1	-14.2	8.6	10.3	4.3	1.3	i
O=C(COC(=O)c1ccco1)NC12CC3CC(CC(C3)C1)C2	·	16.3	·	-3.9	-18.8	-0.3	0.5	·
CC(C)C(NC(=O)c1ccccc1)C(=O)NC1CCCc2ccccc21 (stereo not drawn)	·	·	·	-15.4	-6.5	-2.7	2.5	·
COc1ccc(C(=O)N2CCOC2CNC(=O)C(=O)NCc2ccccc2Cl)cc1 (stereo not drawn)	-2.9	-8.4	3.6	-6.2	-1.9	3.4	0.4	i
Cc1ccc(-n2c(Cc3ccccc3)n[nH]c2=S)c(C)c1	-3.6	-8.9	-6.7	7.0	·	-0.7	8.3	i
Cc1nc(-c2ccccc2)sc1C(=O)CSc1ccc(Cl)cc1	-2.5	·	7.0	36.1	2.9	4.8	2.3	i
CN(Cc1c(C(=O)N/N=C/c2c(F)cccc2Cl)nnn1-c1nonc1N)C1CCCCC1	·	8.2	·	·	-8.2	4.6	1.3	·
C[C@H]1CN(CCc2ccccc2)C(=O)[C@@H]1CC(=O)Nc1ccc(Br)cc1	·	-75.9	·	·	-20.7	6.3	-1.7	·
CC(=O)Nc1ccccc1OC(C)C(=O)N1CCC(C)CC1 (stereo not drawn)	8.1	12.9	-7.1	16.5	·	3.7	0.5	i
O=C(Nc1cc2c3c(c1)CC(=O)N3CCC2)c1ccccc1C(F)(F)F	·	1.9	·	-1.1	-16.7	0.9	5.2	i
O=C(Nc1ncc(C(F)(F)F)cc1Cl)c1ccc(S(=O)(=O)N2CCOCC2)cc1	-5.3	14.8	-2.9	-11.2	5.5	0.7	-3.2	i
C[C@@]12C(=O)N(c3cccc(Cl)c3)C(=O)N1[C@@H]1c3ccccc3OC[C@@H]1[C@H]2c1ccccc1	·	35.9	·	8.0	-13.3	-4.5	-11.4	·
Cc1ccc(NC(=O)c2ncn(CC(=O)NCc3nc4ccccc4[nH]3)n2)cc1C	·	-32.8	·	·	3.1	1.6	2.3	·
Cc1c(C=O)c2ccccn2c1C(=O)c1ccccc1	3.2	·	4.4	-12.0	-5.8	-2.3	2.5	i
O=c1cc2c(nn1Cc1cccc([N+](=O)[O-])c1)-c1ccccc1CC2	-0.7	17.7	-9.8	-8.4	-10.5	3.3	-2.8	i
O=C(Nc1ccccc1Sc1ccccc1)C1CCCO1 (stereo not drawn)	-1.6	·	-2.5	-6.9	-14.0	-0.6	-3.1	i
O=C(N/N=C/c1coc2ccccc2c1=O)c1ccc(Cl)cc1	-7.1	14.3	-0.5	-0.1	7.2	-5.3	-2.4	i
O=C(NCCc1ccc(Cl)cc1)c1ccc2c(c1)OCCO2	-6.0	-70.7	7.5	·	-24.6	0.5	-1.7	i
COc1ccc(CN(C)C[C@@H]2OCCCC[C@@H](C)Oc3ccc(N(C)C)cc3C(=O)N([C@H](C)CO)C[C@@H]2C)cc1	·	9.9	·	·	5.3	0.3	4.9	·
COc1ccc(OC)c(S(=O)(=O)NCCC2=CCCCC2)c1	1.0	·	6.5	-19.4	8.3	3.3	-1.5	i
Cc1ccc(N=Cc2ccccc2O)cc1Cl	·	14.1	·	·	-22.5	-2.3	-1.1	·
Cc1cccc(/C(N)=N/OC(=O)c2ccccc2Cl)c1	3.0	-76.5	-2.0	1.5	-37.0	0.0	5.7	i
O=C1C2CCCCC2C(=O)N1c1ccc(NC2CCN(Cc3ccccc3)CC2)c([N+](=O)[O-])c1 (stereo not drawn)	-4.3	-5.8	9.1	21.0	2.8	6.6	-5.1	i
O=C(Nc1ccccc1F)c1ccc2sc([C@@H]3O[C@H](CO)[C@H](O)[C@H](O)[C@H]3O)nc2c1	·	-24.7	·	·	-13.8	2.9	-0.6	·
COC(=O)c1ccc(C2Nc3ccccc3NC3=C2C(=O)CC(C)(C)C3)cc1 (stereo not drawn)	-8.3	15.1	3.1	-33.0	-9.7	-3.0	-0.3	i
Cc1ccc(NC(=S)N(CCCN(C)C)Cc2cc3cc4c(cc3[nH]c2=O)OCO4)c(C)c1	-4.1	1.2	-7.9	1.1	·	-1.2	1.4	i
COc1ccc(CC(=O)Nc2cc(Cl)ccc2N2CCCC2)cc1	-2.8	12.6	-2.4	50.7	-5.3	-2.1	-6.3	i
COc1ccc(-c2nnn3c2nc(NCc2ccccc2)c2ccccc23)cc1	-6.7	8.4	-13.0	5.9	-4.8	-1.7	5.6	i
Cc1cc(C(=O)COC(=O)c2cc(Cl)ccc2N)c(C)n1Cc1ccco1	44.1	·	0.0	5.3	·	0.4	-3.0	i
O=C(CN1C(=O)c2cccnc2Oc2ccc(Cl)cc21)NCCc1ccccc1	-2.5	-3.2	-0.7	6.5	-26.2	-8.1	-6.2	i
Cc1cc(Nc2ccc(F)cc2F)n2nc(C)nc2n1	-1.3	-14.5	-8.6	3.9	-1.8	-1.4	6.1	i
Cc1ccc(-c2cc(C(=O)N3CCN(c4ccc(F)cc4)CC3)c3ccccc3n2)o1	21.0	·	8.7	-7.9	-15.9	-1.3	-2.3	i
CC(=O)Nc1ccc(NC(=O)C(C)OC(=O)c2cc(S(=O)(=O)N3CCOCC3)ccc2Cl)cc1 (stereo not drawn)	·	-7.3	·	13.2	-4.1	-1.9	1.6	i
COC(=O)c1sccc1-n1cc2c(c1-c1ccccc1)c(=O)n(C)c(=O)n2C	·	15.4	·	·	-2.0	0.7	0.7	·
COc1ccccc1CNC(=O)C1CCCN(S(=O)(=O)c2ccc3c(c2)C(C)(C)C(=O)N3C)C1 (stereo not drawn)	4.4	-23.1	-17.5	-0.8	5.3	-3.4	-6.1	i
COc1ccc(C(=O)N2CCCC(C(=O)c3ccccc3OC)C2)cc1OC (stereo not drawn)	-2.0	0.4	1.8	-3.4	2.1	4.4	1.1	i
COc1ccc(/C=N/N2CCN(c3ccccc3)CC2)cc1Br	-8.4	-9.2	8.9	-6.5	-8.5	0.8	-0.5	i
COC(=O)Nc1nnc(SCc2ccc(C)cc2)s1	-2.7	-58.2	-7.5	32.3	-22.2	10.3	2.0	i
CCCc1c(C)nn(-c2ncccc2[N+](=O)[O-])c1C	-2.3	6.5	-4.7	11.3	6.8	4.5	2.2	i
O=C(COc1ccc(-c2ccccc2)cc1)N1CCCC1	-10.0	-32.3	-13.4	-7.8	-10.6	0.9	-0.5	i
C=CCC[C@@H](Cc1ccc(F)cc1)C(=O)OCCNC(=O)[C@@H](CC=C)CC(=O)N(CCO)Cc1ccccc1	·	22.8	·	-0.4	7.5	-1.3	-12.8	·
O=C(NCCN1C(=O)C2C3C=CC(C3)C2C1=O)N1CCOCC1 (stereo not drawn)	-14.0	4.7	-13.6	·	-4.5	-2.1	4.5	i
Cc1cc(-c2nn(-c3ccccc3F)cc2CN2CCCC(C(N)=O)C2)c(C)s1 (stereo not drawn)	-2.6	6.2	7.8	-11.4	-3.9	2.7	7.1	i
O=C(O)c1nc(-c2ccccc2)n(-c2ccccc2)n1	5.7	10.0	4.9	-12.1	·	0.8	0.6	i
O=C(Nc1cccc(S(=O)(=O)NC2=NCCCCC2)c1)c1cc(-c2ccco2)nc2ccccc12	74.2	-81.1	30.1	-10.2	-19.4	-1.3	1.1	i	eIF4H inh retest=-3.2;PABP polyA inh retest=1.1
COc1ccc(-c2nc(C(F)(F)F)c(OC)o2)cc1OC	-4.5	10.9	2.4	-22.3	-19.3	1.5	1.5	i
CCOC(=O)C1=C(COC(=O)/C=C/c2ccc(F)cc2)NC(=O)NC1C (stereo not drawn)	·	5.1	·	·	-23.1	3.1	5.9	·
CN(C)N1C(N)=C(C#N)C(c2ccc(Br)cc2)C2=C1CC(C)(C)CC2=O (stereo not drawn)	52.1	-2.2	13.0	-1.8	-5.0	3.8	0.7	i	eIF4H inh retest=0.6;PABP polyA inh retest=7.1
CCn1c(COc2cccc(OC)c2)nnc1SCC(=O)Nc1cccc(OC)c1	-0.6	-23.8	-4.0	6.0	-16.3	2.3	0.6	i
COCCCNC(=O)CCC(=O)NNc1nc2ccccc2c2nc(-c3ccccc3)nn12	-6.3	·	-0.9	15.6	-1.4	7.6	7.4	i
CCCN(CC(=O)Nc1ccccc1OC)C(=O)CSC(=S)N1CCCC1	·	1.5	·	-1.8	-8.5	0.7	-0.9	·
Cc1ccc(OCC(=O)Nc2cccc(-c3nnc(-c4ccccc4)o3)c2)c(C)c1	2.2	-107.9	-1.9	7.1	24.3	-0.8	1.5	i
CCOC(=O)c1c(NC(=O)CSc2nnc3c(n2)[nH]c2ccccc23)sc2c1CCN(C)C2	·	·	·	-1.1	9.9	-6.3	-7.0	i
C[C@]12c3[nH]c4ccc(Cl)cc4c3CCN1C(=O)[C@@H](CC(=O)NCCc1ccccn1)C[C@@H]2C(=O)N1CCCCC1	·	-10.8	·	·	-20.9	3.2	-3.4	·

Next results
SMILES	eIF4H inh	HIV Env fusion	PABP polyA inh	CSC inhib	Yeast UUG start	MT1-MMP act inh	MT1-MMP act inh RFP	Rce1 inhib	others
O=C(/C=C/c1ccc2ccccc2n1)N1CCN(S(=O)(=O)c2ccccc2F)CC1	0.2	17.4	-8.7	19.5	·	-16.3	-12.6	i
CC(=O)C(Sc1ccc2nnc(-c3ccc(C)cc3)n2n1)C(C)=O	-8.9	17.7	-1.4	-2.1	-12.6	-0.2	3.5	i
Cc1ccccc1Nc1nc(-c2sc(NC(=O)c3ccc([N+](=O)[O-])cc3)nc2C)cs1	1.0	·	14.4	-28.1	·	·	·	i
CC1CCN(c2c(NCc3ccc(C(=O)N(C)C4CCCCC4)cc3)c(=O)c2=O)CC1	-8.6	4.6	0.1	·	-7.1	-2.6	-2.6	i
NC(=O)c1c(NC(=O)CSc2nnc(-c3ccccc3)n2CC2CCCO2)sc2c1CCC2 (stereo not drawn)	1.6	·	-5.9	-5.5	2.4	-6.3	-1.7	i
Nc1nc2c(s1)C(=O)CCC2	-8.0	·	-3.5	7.0	-10.2	-10.6	2.4	i

2 records drawn at random from those above, as already listed:
SMILES	eIF4H inh	HIV Env fusion	PABP polyA inh	CSC inhib	Yeast UUG start	MT1-MMP act inh	MT1-MMP act inh RFP	Rce1 inhib	others
CC(C)C(NC(=O)c1ccccc1)C(=O)NC1CCCc2ccccc21 (stereo not drawn)	·	·	·	-15.4	-6.5	-2.7	2.5	·
O=C(NCc1ccccn1)c1ccccc1-c1ccccc1	17.8	1.6	6.8	3.5	·	0.0	6.6	i

A run of entries taken from the entries so far, as a working copy:
SMILES	eIF4H inh	HIV Env fusion	PABP polyA inh	CSC inhib	Yeast UUG start	MT1-MMP act inh	MT1-MMP act inh RFP	Rce1 inhib	others
NC(=O)c1c(NC(=O)CSc2nnc(-c3ccccc3)n2CC2CCCO2)sc2c1CCC2 (stereo not drawn)	1.6	·	-5.9	-5.5	2.4	-6.3	-1.7	i
Nc1nc2c(s1)C(=O)CCC2	-8.0	·	-3.5	7.0	-10.2	-10.6	2.4	i

Not all compounds are listed; count on the stated rates, not on these rows.
